Screening results: PubChem, several laboratories
PrP 5UTR inh = inhibition of PrP 5' UTR reporter expression; inhibition, % (concentration not given with the values); 0.35% of 340,000 active; cell-based PrP 5' UTR mRNA reporter, plate reader;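 active means every replicate at 50% or more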;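 further: 0 = median of the neutral control wells; tested in H4 reporter cells; numbers are from one replicate; inactives centre near -14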
Bead autofluor = counter-screen for toxin protease inhibitors: compound fluorescence. compound autofluorescence counterscreen, microsphere flow cytometry; stronger effect = higher value. fluorescence intensity (concentration not given with the values). 3.1% of 360,000 active;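 active means at least 3 SD above the mean of all compounds, about 16000 in these data; inconclusive means too few beads counted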;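 further: 100 nL of 1 mM stock went into each well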
BJeLR viability = MLPCN primary cell-based screen for lethality selective to Ras in HRASV12 cells | BJeLR (HRASV12) viability, CellTiter-Glo ATP luminescence, 48 h; reference of the scale not given here | inhibition, % (concentration not given with the values) | 0.17% of 300,000 active;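 active means replicate mean above 50%; inconclusive means above 50% but judged a plate artefact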;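 further: 50 nL library stock added to about 25 µL; numbers are from one replicate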
Mtb hypoxia inh = PubChem AID 1159583; fluorescence inhibition, % (test concentration not listed); M. tuberculosis hypoxia-regulated fluorescent reporter, fluorescence; 0.1% of 300,000 active;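 active means 35 to 45% if threefold the growth effect, above 45% if 1.5-fold the growth effect; inactive means the rest, general growth blockers included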;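 further: wells of about 50 µL received 100 nL stock; 0% = vehicle wells and 100% = reference inhibitor wells; whole bacteria with a GFP reporter of the hypoxia response; strong numbers were not always called active; many hits fall short of the cut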
ugtP null kill = growth inhibition of ugtP-null S. aureus, primary screen, RN4220 ugtP deletion, OD600; 16 h; some inactives read as strong as hits; growth inhibition, % (concentration not given with the values); 0.54% of 330,000 active; AID 1259309, 2017;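 active means z-score under -3 and OD600 up to 0.15 on both plates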;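 further: plate controls were untreated wells for no effect and antibiotic for full effect; wells of about 80 µL received 100 nL stock; the first replicate is given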
RN4220 kill = growth inhibition of S. aureus RN4220, primary screen, OD600 | inhibition, % (test concentration not listed) | 16 h | 0.33% of 330,000 active;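 active means z-score of -3 or lower and OD600 up to 0.18 on both plates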;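 further: plate controls were untreated cells for no effect and reference antibiotic for full effect; stock transfer was 100 nL into about 80 µL; one replicate is shown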
Mtb hypoxia inh growth = second read-out of Mtb hypoxia inh, no call of its own (marks repeat the call); growth inhibition, %; measured here: M. tuberculosis growth (absorbance);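 0% = vehicle and 100% = reference antibiotic; read after six days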
* = called active by the depositor; u = inconclusive; x = no result given; & = joins results of further samples. Hits appear at their usual frequency, and some 4% of all compounds hit somewhere here.

SMILES | PrP 5UTR inh | Bead autofluor | BJeLR viability | Mtb hypoxia inh | Mtb hypoxia inh growth | ugtP null kill | RN4220 kill
CN1CCN(C2=Nc3cc(Cl)ccc3Nc3ccccc32)CC1 | -8 | 5353 | 0 | 10 | 2 | -5 | 5.3
Cc1csc(=O)n1CC(=O)OCC(=O)NNC(=O)c1ccc(Cl)cc1 | -3 | 4148 | x | 11 | 2 | 0 | 2.1
COc1ccc(NC(=O)C2CCCN2C(=O)OCc2ccccc2)cc1 (configuration not stated) | x | 4480 | 3 | 16 | 8 | -3 | 2.3
COc1ccc(CNC(=O)C(c2cccc(C)c2)N(C(=O)c2csnn2)C2CC2)cc1 (configuration not stated) | -19 | 6028 | -19 | 11 | 2 | 6 | 3.1
Cc1ccc(N2CC(c3nc4ccccc4[nH]3)CC2=O)c(C)c1 (configuration not stated) | -11 | 6462 | -6 | 2 | 16 | -5 | -0.9
Cc1noc(C)c1C(=O)OCC(=O)Nc1ncc(Cl)c(C)c1Cl | 6 | 3727 | x | 1 | 9 | -2 | 4.3
C#Cc1ccc(C2C=C(C(=O)OCC=C)OC(OCC)C2CCCO)cc1 (configuration not stated) | x | x | x | 7&1 | 11&7 | -2&8 | 3.3&4.4
C=CCn1c(=N)n(CC(=O)c2ccc(Br)s2)c2ccccc21 | -6 | 3184 | -1 | 2 | 4 | -10 | 2.7
CSC1=N/C(=C\c2ccc(C)o2)C(=O)S1 | -4 | 3711 | -1 | 11 | 0 | 16 | 3.9
COc1ccc(/C=N/NC(=O)c2cccc([N+](=O)[O-])c2)cc1OC | -4 | 2193 | -2 | x | x | x | x
O=C(Nc1ccccc1N1CCCC1)C1CC(=O)N(Cc2ccccc2)C1 (configuration not stated) | -13 | 5438 | 1 | 2 | 10 | -2 | 2.0
O=C(CSc1ncccc1C(=O)O)c1cccc(C(F)(F)F)c1 | -31 | 4061 | -4 | 5 | 1 | 5 | 3.1
Cc1cccc(-c2nc(CN3CCCC(C(=O)NC4CCCCC4)C3)c(C)o2)c1 (configuration not stated) | -8 | 5929 | 1 | 4 | 16 | 0 | 3.8
Cc1c(Cl)ccc(S(=O)(=O)Nc2cccnc2)c1Cl | -12 | 3454 | -7 | 3 | 9 | 13 | 8.4
CCc1ccc(NC(=O)CS(=O)CC(=O)N2CCN(c3ccccc3F)CC2)cc1 (configuration not stated) | -13 | 5972 | 1 | -14 | -1 | 4 | 4.7
CCOC(=O)N1CCC(=NNc2nc3ccccc3s2)CC1 | -100 | 4566 | 7 | 6 | -6 | -2 | 1.9
O=C(N/N=C/c1ccco1)c1ccc(Br)o1 | -14 | 9151 | -14 | x | x | x | x
CCc1nnc(NC(=O)C2CCCN(C(=O)c3ccc(Cl)cc3)C2)s1 (configuration not stated) | -31 | 8579 | x | 10 | 16 | -4 | -2.4
O=c1oc2ccccc2cc1NCc1ccccc1O | -63 | 6070 | 12 | x | x | 3 | 2.6
CCCC=NNC(=O)c1cc(Br)ccc1O | x | x | x | 4 | 10 | 3 | 9.4
CCCNc1ccc(S(=O)(=O)N(C(C)C)C(C)C)cn1 | -19 | 2594 | 6 | 7 | 5 | 12 | 9.0
O=C(Nc1nccs1)c1ccc(CSc2nnnn2-c2ccccc2)cc1 | -33 | 11303 | 8 | 0 | 2 | -20 | 12
CC1C(=O)N2CCCc3cc(NC(=O)C(=O)NCCc4ccc(F)cc4)cc1c32 (configuration not stated) | -6 | x | 2 | 3 | 9 | 1 | -1.0
Cc1ccc(C(=O)CCC(=O)Nc2ncccc2O)cc1 | -2 | u | 2 | 3 | 3 | 9 | 2.8
Cc1ccc(NC(=O)c2ccc3nc[nH]c3c2)nc1 | -60 | 4526 | -1 | 4 | 4 | 1 | 0.9
CCCn1c(SCC#N)nc2c(c1=O)C1(CCCC1)Cc1ccccc1-2 | -37 | 4137 | -7 | x | x | 9 | -2.5
N=c1c(C(=O)NCc2ccc(F)cc2)cc2c(=O)n3ccccc3nc2n1CCCN1CCOCC1 | -24 | 3424 | x | 11 | 12 | -5 | -14
CC(C)C(=O)NNS(=O)(=O)c1ccccc1 | -19 | 4499 | -8 | 0 | -2 | 1 | 3.4
COCCCNC(=S)N(Cc1ccccc1)Cc1nc2ccccc2c(=O)[nH]1 | -18 | 2510 | -6 | 6 | 2 | 3 | 12
Cc1ccc(NC(=O)COC(=O)Cn2nc(-c3ccc(F)cc3)oc2=O)cc1C | -15 | 3773 | x | 6 | 8 | -3 | 5.0
CCOP(=O)(Cc1ccc(C(C)(C)CC(C)=O)o1)OCC | -1 | 4706 | -1 | -1 | -7 | 0 | 1.6
COCCCNC(=O)CN1C(=O)COc2ccc(S(=O)(=O)N3CCCCCC3)cc21 | 5 | 4094 | 4 | 8 | 3 | 2 | 3.3
CCOC(=O)N1CCN(c2c(N3CCN(c4ccccn4)CC3)c(=O)c2=O)CC1 | 0 | 6021 | x | 9 | 11 | 1 | -0.7
CCOC(=O)c1ccc(NC(=O)CSc2nc(=O)n(CCN3CCOCC3)c3c2CCC3)cc1 | -19 | 5170 | 3 | -7 | 6 | 0 | 0.7
NS(=O)(=O)c1ccc(NC(=S)N2CCN(c3ccccc3Cl)CC2)cc1 | -5 | 2392 | -16 | 3 | -5 | 8 | -1.8
c1ccc(SCCOCCn2cncn2)cc1 | -15 | 2829 | -4 | 1 | -1 | 1 | 2.1

Given with each value named: four of the compounds above.
> c1ccc(SCCOCCn2cncn2)cc1
  PrP 5UTR inh = -15 | Bead autofluor = 2829 | BJeLR viability = -4 | Mtb hypoxia inh = 1 | Mtb hypoxia inh growth = -1 | ugtP null kill = 1 | RN4220 kill = 2.1

> CCOC(=O)N1CCN(c2c(N3CCN(c4ccccn4)CC3)c(=O)c2=O)CC1
  PrP 5UTR inh = 0 | Bead autofluor = 6021 | BJeLR viability = x | Mtb hypoxia inh = 9 | Mtb hypoxia inh growth = 11 | ugtP null kill = 1 | RN4220 kill = -0.7

> CCOC(=O)c1ccc(NC(=O)CSc2nc(=O)n(CCN3CCOCC3)c3c2CCC3)cc1
  PrP 5UTR inh = -19 | Bead autofluor = 5170 | BJeLR viability = 3 | Mtb hypoxia inh = -7 | Mtb hypoxia inh growth = 6 | ugtP null kill = 0 | RN4220 kill = 0.7

> Cc1ccc(NC(=O)COC(=O)Cn2nc(-c3ccc(F)cc3)oc2=O)cc1C
  PrP 5UTR inh = -15 | Bead autofluor = 3773 | BJeLR viability = x | Mtb hypoxia inh = 6 | Mtb hypoxia inh growth = 8 | ugtP null kill = -3 | RN4220 kill = 5.0

Continued:
SMILES | PrP 5UTR inh | Bead autofluor | BJeLR viability | Mtb hypoxia inh | Mtb hypoxia inh growth | ugtP null kill | RN4220 kill
CC1CCCN(S(=O)(=O)c2ccc(Br)s2)C1 (configuration not stated) | -9 | 2464 | -3 | 20 | 8 | 15 | 5.0
Brc1cc2c(cc1COc1ccc(-c3nn[nH]n3)cc1)OCO2 | -21 | 2168 | 5 | x | x | 24 | 16
O=C(COC(=O)/C=C/c1ccc(F)cc1)Nc1cc(C(F)(F)F)ccc1N1CCOCC1 | -8 | 2659 | -5 | 6 | 1 | -8 | 4.1
C=C(C)[C@@]12OC3(c4ccccc4)O[C@@H]1C1[C@@H]4O[C@]4(CO)[C@@H](O)[C@]4(O)C(=O)C(C)=C[C@H]4[C@@]1(O3)[C@H](C)[C@H]2OC(=O)/C=C/C=C/c1ccccc1 (some centres not stated) | -101 | 5571 | 17 | x | x | -12 | -6.2
COCCCNC(=O)Cn1cc(/C=C(\C#N)C(=O)NC2CC2)c2ccccc21 | -21 | 2976 | -1 | 3 | -4 | 6 | 0.5
CN(C)c1ccc(C(=O)c2ccc(N(C)C)c(N)c2)cc1N | -22 | 2620 | 0 | x | x | 5 | 2.9
NS(=O)(=O)c1ccc(CCNC(=O)CN2CCN(Cc3cccc4ccccc34)CC2)cc1 | -18 | 3473 | 7 | -3 | 0 | 8 | 4.9
CC1CCCN(C(=O)CCS(=O)(=O)c2ccc3c(c2)NC(=O)C(C)S3)C1 (configuration not stated) | -20 | 5518 | 0 | 11 | 9 | 9 | 0.1
COCCCN(Cc1cccs1)S(=O)(=O)c1c[nH]c(C(=O)OC)c1 | -14 | 4991 | 8 | 5 | 5 | 0 | 2.8
CC1=NN(c2cccc(C(=O)O)c2)C(=O)/C1=C\C=C/c1ccccc1 | x | 3393 | 4 | 3 | 8 | 0 | -1.3
N/C(Cc1ccc(Cl)cc1)=N\OC(=O)c1cccc2ccccc12 | -17 | 11336 | 2 | 2 | 3 | 2 | 0.8
C(=N\NC(=Nc1ccccc1)c1ccccn1)/c1ccccn1 | 10 | 2447 | 22 | x | x | x | x
CCOC(=O)c1c(C)[nH]c(C(=O)OC(C)C(=O)NCc2ccccc2)c1C (configuration not stated) | -1 | u | 6 | -4 | -12 | 12 | 8.5
COC(=O)c1ccc(Cl)c(NS(=O)(=O)c2ccc3c(c2)OCCO3)c1 | -17 | 3674 | -8 | 2 | 0 | 1 | 15
NC(=O)c1c(NC(=O)c2cnccn2)sc2c1CCCC2 | -51 | 3299 | -6 | 4 | 16 | -4 | 5.2
CCOC(=O)C1CCN(S(=O)(=O)c2cc(C(=O)OC)n(C)c2)CC1 | -6 | 5608 | 11 | 5 | 5 | 7 | 0.6
Cc1cc(=O)n2nc(N3CCCC(C(=O)NCc4ccc5c(c4)OCO5)C3)sc2n1 (configuration not stated) | -28 | 2550 | 7 | 8 | 10 | 3 | -5.7
CC1(c2nnc(-c3cccc(Cl)c3)o2)CC(c2ccccc2F)=NO1 (configuration not stated) | -24 | 2765 | -1 | 11 | 12 | -1 | 10
CSc1ccccc1NC(=O)C1CC(c2c(F)cccc2Cl)=NO1 (configuration not stated) | -39 | 4146 | -8 | 6 | 6 | 12 | 3.8
COc1ccccc1N=c1oc2cc(O)ccc2cc1C(=O)NCC1CCCO1 (configuration not stated) | -35 | 5709 | 1 | 3 | 8 | -6 | 9.6
CC(OC(=O)c1cc(Br)ccc1O)C(=O)NC1(C#N)CCCCC1 (configuration not stated) | 3 | u | -8 | -1 | 6 | 0 | 3.6
O=C(CSc1nc(=O)n2ccccc2n1)NCCc1ccccc1 | -10 | x | 7 | 7 | -1 | 5 | 0.4
O=C(NNc1c2ccccc2nc2ccccc12)C(O)c1ccccc1 (configuration not stated) | 5 | 4222 | -4 | 7 | 2 | -6 | 6.6
CC1CCN(C(=O)NC(=O)c2ccccc2)CC1 | -24 | 6099 | 5 | 3 | -2 | 13 | 0.2
COc1ccc(-n2c(=O)/c(=C\c3cccs3)s/c2=C(/C#N)C(=O)N2CCN(C)CC2)cc1 | 8 | 3159 | 10 | x | x | x | x
O=C(NCc1ccco1)C(=O)NCC1OCCN1S(=O)(=O)c1ccccc1 (configuration not stated) | -39 | 4842 | -4 | 9 | 8 | 2 | -6.0
Cc1ccc(-n2c(=O)[nH]cc(C(=O)N3CCc4ccccc43)c2=O)cc1C | -24 | 5562 | 3 | 3 | -1 | 13 | 4.4
C/C(N)=C(/C#N)C(=O)COC(=O)CC12CC3CC(CC(C3)C1)C2 | -16 | 4509 | 16 | x | x | 16 | 11
COc1ccc(C(=O)Nc2ccc(N3CCN(C)CC3)cc2)cc1OC | -41 | 3076 | 1 | x | x | x | x
COc1ccccc1N1CCN(C2CCCN(C(=O)c3cc(C4CC4)on3)C2)CC1 (configuration not stated) | -10 | 4977 | 5 | 13 | 5 | 2 | 6.5
CCCCOc1ccc(C(=O)O)cc1 | -17 | 3071 | 5 | 13 | 6 | -1 | 5.4
CCCCCCC(C)n1[nH]c(=O)c2c(C)cc(C)nc21 (configuration not stated) | -19 | 4282 | -6 | -7 | 3 | 9 | 8.4
CCn1c(=O)cc(SCC(=O)N2CCN(Cc3ccc4c(c3)OCO4)CC2)c2ccccc21 | 0 | 8981 | 2 | -7 | 1 | -6 | -3.5
Cn1c2c(c(=O)n(C)c1=O)C(CC(=O)Nc1ccccc1F)C(=O)N2 (configuration not stated) | x | 4690 | -6 | 9 | -11 | 7 | -0.1
N#C/C(=N\Nc1ccc(S(=O)(=O)N2CCCCCC2)cc1)C(N)=S | -17 | 4760 | 6 | x | x | x | x
CCOC(=O)c1c(NC(=S)NNS(=O)(=O)c2ccc(Br)cc2)sc2c1CCCCC2 | 1 | u | 2 | 1 | 9 | -15 | 11
COc1ccccc1N(CC(=O)NC1CCCCC1)C(=O)c1csnn1 | -27 | 4086 | 4 | 12 | 13 | 5 | 4.2
